Screening data from PubChem BioAssay.
LANA-H2A inh: blocks KSHV LANA binding to histone H2A/H2B | cell-free LANA-H2A/H2B peptide, fluorescence polarization | inhibition, % (no concentration beside the values) | 320,000 compounds, 0.6% hits; in the data active means inhibition mostly above about 10%, no sharp cut-off; inactive means mostly below about 6.7%;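 further: stock transfer was 7.5 nL into about 10 µL; 0% = median of vehicle wells and 100% = median of positive control wells; one replicate is shown; the record names a cut of 25% in any replicate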
AF4-AF9 inh: blocks AF4 peptide binding to human AF9; AlphaScreen, biotin-AF4 peptide binding to FLAG-AF9; inhibition, % at 10 µM; 350,000 compounds, 0.47% hits; AID 651704;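 active means every replicate reaching a set inhibition limit, whatever the replicate mean, cut at about 25% in these data; inconclusive means mean inhibition reaches that limit but some replicates miss it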;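 further: 0% = plate neutral control median and 100% = total signal loss; the record names both 10 and 1 µM as test concentration; the first replicate is given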
Target sequence (P42568 whole entry, looked up): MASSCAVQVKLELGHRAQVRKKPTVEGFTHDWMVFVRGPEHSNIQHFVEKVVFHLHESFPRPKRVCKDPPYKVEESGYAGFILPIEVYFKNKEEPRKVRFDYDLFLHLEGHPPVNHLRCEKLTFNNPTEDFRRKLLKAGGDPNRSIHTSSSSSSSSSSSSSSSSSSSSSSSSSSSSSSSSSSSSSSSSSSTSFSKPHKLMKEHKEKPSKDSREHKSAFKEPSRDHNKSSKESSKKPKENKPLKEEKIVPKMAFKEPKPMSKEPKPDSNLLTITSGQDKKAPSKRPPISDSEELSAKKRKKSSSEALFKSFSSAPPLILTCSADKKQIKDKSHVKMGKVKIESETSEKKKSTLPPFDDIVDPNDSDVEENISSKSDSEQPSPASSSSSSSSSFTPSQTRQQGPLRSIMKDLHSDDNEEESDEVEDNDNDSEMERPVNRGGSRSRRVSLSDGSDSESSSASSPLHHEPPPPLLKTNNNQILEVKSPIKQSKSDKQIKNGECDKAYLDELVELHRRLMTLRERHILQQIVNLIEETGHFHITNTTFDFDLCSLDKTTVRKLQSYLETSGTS
A1 inh: inhibitors of the anti-apoptotic protein A1, read as caspase activation; AID 2462; MEF A1-2A-BIM cells, Caspase-Glo 3/7 luminescence, 3 h; percent of clofoctol response, vehicle zero; caspase activation, % (test concentration not listed); 330,000 compounds, 0.066% hits;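 active means over half of replicate activation scores above 10%, or exactly half above 10 with the replicate mean above 10; inconclusive means replicate mean below 10 yet half the replicates above 10; inactive means over half of replicates below 10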;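 further: wells of about 30 µL received 50 nL stock; many hits fall short of the cut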
RanGTP-Imp inh: disruptors of Ran-importin-beta complex formation – biochemical, FRET, CFP-Ran, YFP-importin-beta, homogeneous, primary screen; cell-free CFP-Ran/YFP-importin-beta FRET ratio; inhibition, % (no concentration beside the values); 300,000 compounds, 1.1% hits;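 active means most replicates above 15%; inconclusive means exactly half above 15%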;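 further: 0% = DMSO wells and 100% = Ran loaded with GDP instead of GTP; wells of about 40 µL received 100 nL stock; the first replicate is given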
T cruzi inh: blocks replication of Trypanosoma cruzi | T. cruzi beta-gal in NIH3T3, luminescence, 90 h | 300,000 compounds, 1.4% hits | inhibition, % (no concentration beside the values);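 active means mean inhibition across valid replicates above about 55%, limit read from the data; inconclusive means mean below that limit but half or more replicates reach it; inactive means mean below it, under half of replicates reach it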;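 further: signal also drops with host cell toxicity which is not excluded here; 0% = plate median of DMSO wells and 100% = zero luminescence signal; higher percent means less beta-gal luminescence so fewer parasites; stock transfer was 50 nL into about 50 µL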
Vif A3G: inhibitors of Vif binding to APOBEC3G peptide, primary screen, biochemical, TR-FRET, GST-Vif 1-94, biotin-A3G peptide, dose response retest (AID 1117319); inhibition, %, or IC50 in µM where a hit was titrated; 260,000 compounds, 0.57% hits; TR-FRET GST-Vif / biotin-A3G peptide binding; higher % means a stronger effect; test concentration not given here; strong numbers were not always called active;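 active means above the screen mean plus three standard deviations and confirmed in dose response; inconclusive means results disagree or hit not tested in dose response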;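 further: Vif residues 1-94 fused to GST binding biotinylated APOBEC3G peptide 110-148; 0% = full assay without inhibitor and 100% = GST in place of GST-Vif; retest series ran down from 100 µM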
Beta cell apopt: beta cell apoptosis inhibition | INS-1E cytokine-induced death, ATP luminescence, 48 h; percent of positive-control rescue, neutral wells zero | protection from apoptosis, % (test concentration not listed) | 300,000 compounds, 0.8% hits | AID 435005;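 active means all replicates at 75% or more, or half of them and the mean; inconclusive means half reach 75% but not the mean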;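 further: 0% = cytokine-treated negative control wells and 100% = positive control rescue; higher means more ATP so stronger rescue from cytokine killing; wells of about 40 µL received 100 nL stock; the first replicate is given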
Calb FLC: C. albicans growth modulation with fluconazole; C. albicans CaCi-2 (fluconazole-resistant clinical isolate) + fluconazole, Alamar Blue growth, 48 h; growth inhibition, % (test concentration not listed); 300,000 compounds, 0.57% hits;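 active means most replicates above 75%; inconclusive means exactly half above 75%; inactive means most below 75%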;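 further: all wells also contain fluconazole at 8 µg/ml as a sub-toxic cotreatment; 0% = median of DMSO wells and 100% = median of geldanamycin control wells; wells of about 8 µL received 7.5 nL stock; the first replicate is given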
Numbers without * were called inactive; ? = inconclusive; . = not tested or not shown; & = joins results of further samples.

SMILES	LANA-H2A inh	AF4-AF9 inh	A1 inh	RanGTP-Imp inh	T cruzi inh	Vif A3G	Beta cell apopt	Calb FLC
CCCC1=Nc2cc(C(=O)N3CCC(C(=O)OCC)CC3)ccc2Sc2ccccc21	0.5	11	-0.9	0.5	24	-5%	-3	7
CCC(Oc1ccc2c(=O)c(-c3ccccc3OC)coc2c1)C(=O)OCc1ccccc1 (stereo not given)	0.1	.	-0.5	-5.1	1	-5%	-6	-1
COC(=O)c1sccc1-n1cccc1C(=O)NCc1ccccc1	-3.4	.	-0.1	-3.8	11	-2%	-9	-2
CCc1ccc(Cn2nnc(C(=O)Nc3cccc(C)c3)c2N)cc1	-1.9	-3.2	-1.2	-3.5	36	4%	-2	3
O=C(Cc1ccc(Br)cc1)Nc1ccc(S(=O)(=O)NCC2CCCO2)cc1 (stereo not given)	3.0	-1.1	0.1	?	3	-7%	-1	-3
CCN(CC)c1ccc(S(=O)(=O)N2CCOCC2)cc1NS(C)(=O)=O	5.8	-4.1	0.1	8.8	-19	11%	-4	-8
O=C(NNC(=S)Nc1ccc(Br)cc1Cl)c1ccco1	0.8	2.7	-0.3	-1.8	-6	.	0	24
CCOC(=O)C(C)n1cnc2c(nnn2-c2ccc(F)cc2)c1=O (stereo not given)	-3.8	1.9	-0.1	1.2	-10	.	1	4
COc1ccc(CC(=O)N/N=C/C=C/c2cccc([N+](=O)[O-])c2)cc1OC	-1.7	6.1	-0.1	0.4	8	-2%	-6	-6
CCOC(=O)NC(c1ccccc1)C1CCCCC1=O (stereo not given)	0.1	.	-0.2	?	1	3%	-1	-3
COc1ccc(/C=C2/C(=O)N(c3ccccc3)N=C2C)cc1	0.3	.	0.4	-1.2	27	.	-2	13
CC(=O)NC1C(=O)N(CCN2CCOCC2)c2ccc(Cl)cc21 (stereo not given)	-0.3	16	1.0	1.9	-4	0%	-5	-7
Brc1cnc2nc[nH]c2c1	-1.2	-4.4	0.5	2.6	-23	-4%	0	-16
Cc1nc2ncnn2c(C)c1CCC(=O)NCc1ccco1	1.4	.	-0.4	-1.6	-10	18%	-1	-9
O=C(Nc1ccc2c(c1)OCO2)N1CCCc2ccccc21	3.8	-22	-1.8	-1.1	-2	?	7	-5
Cc1cc(C(=O)Nn2cnc3ccccc3c2=O)ccc1[N+](=O)[O-]	-0.2	-0.4	0.9	-1.9	-42	-1%	-2	-11
O=C(NC1CC1)C1=C[C@H](c2ccc(Br)cc2)C[C@H](OCc2ccc(CO)cc2)O1	-0.4	-1.3	0.8	0.8	9	14%	-5	14
Cc1cc(C)c(OCC(=O)OCC(=O)NCCC2=CCCCC2)c(C)c1	-1.6	-1.4	0.9	-0.2	-9	4%	-2	0
NC(=O)NC(=O)COC(=O)c1ccc(OC(F)F)cc1	0.1	-1.5	0.9	-2.6	-11	-8%	-1	-23
Nc1cccc(C2=Nc3cccc4cccc(c34)N2)c1	-7.8	.	0.0	?	-15	.	-4	-3

Full records from above. Order of values: LANA-H2A inh	AF4-AF9 inh	A1 inh	RanGTP-Imp inh	T cruzi inh	Vif A3G	Beta cell apopt	Calb FLC
Results for CCOC(=O)NC(c1ccccc1)C1CCCCC1=O (stereo not given) = 0.1	.	-0.2	?	1	3%	-1	-3
Results for CCOC(=O)C(C)n1cnc2c(nnn2-c2ccc(F)cc2)c1=O (stereo not given) = -3.8	1.9	-0.1	1.2	-10	.	1	4

The results go on:
SMILES	LANA-H2A inh	AF4-AF9 inh	A1 inh	RanGTP-Imp inh	T cruzi inh	Vif A3G	Beta cell apopt	Calb FLC
CCN(CC)c1nc(C)nc2c1cnn2CCc1ccccc1	-3.6	.	0.8	-5.6	-8	-6%	-7	-6
CCOc1cc(N2CCOCC2)c(OCC)cc1NC(=O)c1c(-c2ccccc2)noc1C	.	15	0.3	.	.	2%	0	.
C/C(=N\NC(=O)CCC(=O)Nc1ccc(C)c(C)c1)c1cccs1	-8.6	-2.0	1.8	-3.3	8	0%	.	-1
CCOC(=O)c1oc2c(CN3CCN(C)CC3)c(O)ccc2c(=O)c1-c1ccccc1OC	1.1	4.9	0.6	-1.2	4	6%	-7	-10
C/C(=N\NC(=O)c1cccc(Cl)c1)c1cccc(NC(=O)c2ccco2)c1	2.8	.	-0.4	-0.3	-6	28%	-1	-6
CCc1nnc(NC(=O)CSc2nnc(Cc3cc(=O)[nH]c(=O)[nH]3)n2-c2cccc(OC)c2)s1	0.0	-0.8	0.5	1.0	-3	12%	-2	-8
Cc1cccc(NC(=O)C2C3C=CC(O3)C2C(=O)O)c1C (stereo not given)	2.5	3.3	-0.5	1.6	1	.	-3	5
CCOc1ccc(C(=O)NC(=S)NCCCN2CCOCC2)cc1	2.0	-1.5	-0.2	0.2	-6	.	3	-6
CC1(C)CC(=O)C2=C(C1)OC(N)=C(C#N)C2c1cn(-c2ccccc2)nc1-c1ccccc1 (stereo not given)	9.5	.	0.3	-5.0	-7	0%	-7	-2
COc1ccc2[nH]cc(C(O)CN3CCC(C(N)=O)CC3)c2c1 (stereo not given)	0.9	.	0.3	-2.4	-2	-3%	-3	6
CC(C)c1nnc(NC(=O)c2nc(S(=O)(=O)Cc3ccc(F)cc3)ncc2Cl)s1	-2.6	-0.3	?	0.6	-25	.	-22	-4
Cc1ccc(NC(=O)[C@@H](NC(=O)c2cccc(S(=O)(=O)N3CCOCC3)c2)C(C)C)cc1C	-6.1	2.1	0.0	-4.5	-13	1%	24	8
COc1ccc2[nH]c(=O)c(-c3noc(-c4ccc(F)cc4)n3)cc2c1	0.2	.	-0.3	-3.7	-23	3%	0	?
COc1ccc(Nc2cc(=O)n(C3CCCCC3)c(=O)[nH]2)c(OC)c1	2.6	.	-0.2	4.1	23	-3%	-5	0
COC(CNC(=O)c1ccc(CS(=O)(=O)c2ccc(C)cc2)o1)OC	-1.0	-2.6	-0.1	0.6	8	-3%	-3	-4
CSc1c(SCc2ccccc2)cnn(-c2ccccc2)c1=O	11	.	0.7	4.3	-6	.	-4	1
Cc1ccc(S(=O)(=O)N2C(=O)CCC2C(=O)NCc2ccco2)cc1 (stereo not given)	2.2	.	0.4	-0.3	-5	1%	6	-1
O=C(CCCc1c[nH]c2ccccc12)N1CCOCC1	1.8	.	-0.3	-2.3	-15	78%	-2	4
COC(=O)CC1=NN(c2nc3ccccc3s2)C(=O)/C1=C/N(C)C	2.4	2.2	-6.4	1.5	-11	.	6	-3
Cc1ccc(C2OCC3(CO)COC(c4ccc(C)cc4)N23)cc1 (stereo not given)	-1.9	.	-0.4	-0.2	2	2%	-4	25
O=C(C/C=N\O)Nc1ccc(Oc2ccccc2)cc1	3.8	-0.1	1.3	5.1	5	3%	-6	2
Cc1ccc(NC(=O)NC(=O)CSc2nnc(-c3ccc(OC(F)F)cc3)n2N)c(C)c1	1.8	.	-1.1	0.4	15	.	-11	0
NC(=O)COc1ccc(-c2noc(COc3ccccc3[N+](=O)[O-])n2)cc1	-1.3	-1.2	0.2	2.2	2	-2%	-2	47
COc1ccc(C(C)=O)cc1CN1C(=O)NC2(CCCCCCC2)C1=O	1.7	2.3	0.4	-1.2	-10	-1%	2	-37
CCOP(=O)(OCC)c1nc(-c2ccccc2Cl)oc1N1CCOCC1	12	-0.6	0.8	-6.2	4	-3%	-2	-1
CCN(C(=O)CN1CCOCC1)C1(C)C(=O)c2ccccc2C1=O	-4.6	0.9	1.8	-2.5	-10	5%	6	-11
CCc1nnc(NC(=O)CSc2ccc(-c3nc4ccc(C)cc4[nH]3)cn2)s1	3.6	.	-1.6	0.6	4	11%	.	7
O=C(O)c1cccc(S(=O)(=O)NCCC(c2ccccc2)c2ccccc2)c1	1.6	-0.2	0.3	0.0	-6	-1%	-6	5
Cn1nc2c3ccccc3n(Cc3ccc(F)cc3)c2nc1=S	-2.6	1.2	0.0	0.7	-16	0%	17	5
O=C(c1cc(COc2ccc3ncccc3c2)on1)N1CCC(O)CC1	2.9	0.2	0.2	2.3	-29	5%	.	-2
N=C1C(c2nc(-c3ccc(Cl)cc3)cs2)=C(O)CN1CCCN1CCOCC1	-1.3	.	0.0	-4.4	9	7%&-11%	-3	3
CN(C)/C=C/C(=O)c1ccc(Oc2ncccn2)cc1	9.2	-0.9	0.0	3.7	-3	3%	0	1
Cc1nc(SC(C)C(=O)NCC2CCCO2)c2cc(-c3ccccc3)sc2n1 (stereo not given)	-6.1	-17	-0.6	-0.7	7	-5%	1	-7
CCN(CC)CCOC(=O)C12CC3CC(CC(C3)C1)C2	3.9	.	-1.5	?	3	-6%	3	-8
CCOc1c(Cl)cc(C2NC(=O)NC(C)=C2C(=O)NCc2ccccc2)cc1OC (stereo not given)	1.7	.	?	0.0	-7	-5%	-3	-4
O=C(COC(=O)C1CCN(S(=O)(=O)c2ccccc2)CC1)NC(=O)c1ccc(OC(F)F)cc1	3.8	0.3	0.1	1.0	-4	.	-1	-20
CCN(CC(=O)NC1CCS(=O)(=O)C1)C(C)C(=O)Nc1ccc(F)cc1 (stereo not given)	0.5	0.7	-0.2	.	.	.	-6	.
CC(NC(=O)CNC(=O)Cc1cccc2ccccc12)c1ccc(S(N)(=O)=O)cc1 (stereo not given)	4.1	-13	-0.7	-2.7	-4	.	-3	0
Clc1ccc(OCCSc2ncccn2)c2ccccc12	0.5	.	0.8	-4.4	22	-2%	2	23
CN(CC(=O)NCc1ccccc1Cl)CC(=O)Nc1cccc(F)c1	4.9	0.4	?	-4.0	-5	.	-1	25
Cc1[nH]c2ccccc2c1C(=O)NS(=O)(=O)Nc1ccccc1	1.9	-8.6	-0.8	.	-11	1%	-2	4
CCN(c1ccccc1)S(=O)(=O)c1ccc(Oc2ccc(C(C)=O)cc2OC)nc1	1.2	1.9	-1.2	.	.	-6%	1	.
Cc1ccccc1C(=O)Nc1ccc(Cl)cn1	1.8	.	0.3	0.0	4	2%	4	-9
COc1ccccc1CNC(=O)c1cccc(NC(=O)c2ccccc2)c1	0.1	.	-0.6	-1.8	-1	27%	-6	4
CN1C(=O)S/C(=C\c2ccc(-n3cncn3)cc2)C1=O	-1.4	1.2	-0.7	-2.0	8	-14%	3	-11
Cc1ccc(-c2nnn(CCC(=O)Nc3ccc4c(c3)OCO4)n2)cc1	-6.1	.	0.3	-0.9	11	-1%	-4	-2
CCC(C)Sc1ccc([C@@H]2[C@@H]3C(=O)N(C)C(=O)[C@@H]3[C@]3(C(=O)OC)CCCCN23)cc1OC (stereo not given in full)	-3.3	2.6	0.7	4.3	2	.	-5	11
COc1cccc(NC(=O)CNC(=O)c2ccc(C)o2)c1	2.3	4.8	0.9	-0.6	6	.	-10	-8
Cc1cc(NC(=O)CN2C(=O)NC(C)(CC(C)C)C2=O)no1 (stereo not given)	-2.0	0.5	-0.5	.	.	.	-9	.
C=CCN1C(=O)/C(=C2/Sc3ccc(OC)cc3N2C)SC1=Nc1ccc(OC)cc1	-1.5	1.2	1.5	-0.8	5	-1%	.	-13
O=C(O)COc1ccc(/C=C2/SC(=S)N(Cc3ccccc3)C2=O)cc1	-10.0	12	0.1	-3.3	-14	-5%	-4	6
O=C(O)Cc1ccc(-n2cccc2)cc1	2.3	-4.6	0.2	-3.9	-5	?	-4	7
